Screening data from PubChem BioAssay.
gsp antagonist – antagonists of gsp mutant (McCune-Albright syndrome); Potency, µM (highest dose often 76.9 µM), without a hit: at the highest dose activity change, negative = inhibition, most hits filed as inhibitors; 340,000 tested, 0.4% active; gsp-mutant cells, cAMP HTRF, 30 min; control for the full effect not named in the record; AID 624288; active = falling curve of any shape with a large fitted effect; inconclusive = falling curve, mostly with a smaller effect; inactive = flat or rising curve; cell line not stated here;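 further: intracellular cAMP measured with PDE inhibitor Ro 20-1724 present during compound exposure; potency means the concentration at half of the fitted maximal effect; on the % scale 0 is the no-effect control and ±100 the full control effect; nearly all actives have a fitted effect of over 65% in size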
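HTRF cAMP read-out (cAMP-d2 plus anti-cAMP antibody-K in lysis buffer, 30 min RT). Before lysis, cells are exposed to compounds with […] for 30 min at 37C in DPBS containing Ca/Mg, BSA and Tween 20.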
D2 PAM – positive allosteric modulators of human D2 dopamine receptor; 360,000 tested, 0.23% active; AID 624464; P14416; potentiation, % (test concentration not listed); DiscoveRx D2 beta-arrestin cells, luminescence, 90 min; 100% = 57 uM dopamine signal; active = potentiation of 50% or more; inconclusive = 30% to 50%; inactive = 30% or less;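 further: compound concentration not given in the record; tested on top of an EC20 dose of dopamine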
Target sequence (P14416 whole entry, looked up): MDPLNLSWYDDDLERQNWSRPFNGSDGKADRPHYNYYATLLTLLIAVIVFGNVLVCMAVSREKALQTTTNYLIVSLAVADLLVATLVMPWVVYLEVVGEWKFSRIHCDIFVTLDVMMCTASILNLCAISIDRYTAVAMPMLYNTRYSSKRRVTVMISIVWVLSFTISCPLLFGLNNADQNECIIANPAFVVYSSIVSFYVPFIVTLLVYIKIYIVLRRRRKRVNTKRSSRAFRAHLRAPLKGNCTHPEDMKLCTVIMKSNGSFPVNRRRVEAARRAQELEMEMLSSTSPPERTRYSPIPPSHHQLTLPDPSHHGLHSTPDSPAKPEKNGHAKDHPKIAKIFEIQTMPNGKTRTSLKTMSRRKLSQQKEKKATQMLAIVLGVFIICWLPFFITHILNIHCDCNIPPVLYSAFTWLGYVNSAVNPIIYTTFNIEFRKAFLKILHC
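PathHunter beta-arrestin assay in DiscoveRx D2 cells. Compounds were added with an EC20 of dopamine (50 nM final) for 90 min at 37 deg C. Luminescence was read 1 h after detection reagent, with 57 uM dopamine as the EC100 control.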
gsp agonist – activates gsp, the McCune-Albright syndrome mutation; AID 624287; 340,000 tested, 0.13% active; gsp mutant cells, cAMP HTRF, 30 min; control for the full effect not named in the record; Potency, µM (series often up to 76.9 µM), inactives show top-dose activation (cAMP increase), hits mostly activators; active = well fitted activation curve with a large enough effect; inconclusive = small, poorly fitted or top-dose-only effect, or another doubt; inactive = no such curve, though single readings can be large or run the other way; cell line not stated here;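 further: phosphodiesterase inhibitor Ro 20-1724 added with compounds to block cAMP breakdown; potency means the concentration at half of the fitted maximal effect; nearly all actives have a fitted effect of over 60% in size; about a fifth of the inactives were tested at one dose only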
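Cells stably selected in G418 were plated at 2000/well, grown 16-24 hr, then given compounds in DMSO with the PDE inhibitor […] (300 uM solution added) for 30 min at 37C; cAMP was read by HTRF.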
Six1-Eya2 inh – blocks human Six1 binding to Eya2; AlphaScreen GST-Six1/His-Eya2 binding, biochemical; active compounds read low; control for the full effect not named in the record; activity change, % (no concentration beside the values); 360,000 tested, 0.56% active; in the data active = activity change below about -65%; inconclusive = about -30% to -65%; inactive = above about -30%; further: on the % scale 0 is the no-effect control and ±100 the full control effect
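AlphaScreen with GST-Six1 and His-Eya2 (5X mix: 250 nM and 500 nM), glutathione donor and nickel acceptor beads; buffer 50 mM Tris pH 8.0, 300 mM NaCl, 1 mM TCEP; 1 h at 37 C in the dark.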
D2 agonist – activates the human D2 dopamine receptor. P14416. DiscoveRx PathHunter D2 beta-arrestin, luminescence, 90 min; 100% = 57 uM dopamine signal. activation, % (test concentration not listed). 360,000 tested, 0.084% active. AID 624465; in the data active = activation above about 40%; inconclusive = about 15% to 40%; inactive = below about 15%; further: compound concentration not given in the record; the text of the record calls up to 30% inactive
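Agonist mode: compounds alone added to overnight-plated D2 PathHunter cells for 90 min at 37 C, with 57 uM final dopamine (EC100) defining full response. Beta-arrestin recruitment detected by chemiluminescent reagent, read after 1 h at ambient temperature.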
CtBP-E1A inh – blocks the CtBP interaction with E1A. AlphaScreen GST-E1A/His-CtBP binding, 1536-well; active compounds read low; control for the full effect not named in the record. activity change, % (test concentration not listed). 340,000 tested, 0.49% active. AID 651724; in the data active means activity change below about -65%; inconclusive means about -30% to -65%; inactive means above about -30%; further: on the % scale 0 is the no-effect control and ±100 the full control effect
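In 5 uL wells, 23 nL compound meets equimolar GST-E1A and His-CtBP (5X stock 125 nM each) for 2 h, 37 °C. Beads (5X, 50 ug/mL) then 1 h, 37 °C, dark.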
* hit, by the source's call; ? = inconclusive; · = not tested or not shown; [ ] = another dose, or the depositor's remark.

Values in the order – gsp antagonist	D2 PAM	gsp agonist	Six1-Eya2 inh	D2 agonist	CtBP-E1A inh
> NS(=O)(=O)c1ccc(NCc2cc(Cl)ccc2OCc2ccc(F)cc2)cc1
→ -28%	7	-10%[15.4 µM]	?	4.2	1
> O=C(CSc1nc2ccccc2c(=O)n1-c1ccc(Cl)cc1)N/N=C/C=C/c1ccccc1[N+](=O)[O-]
→ 4%	-2	-9%[15.4 µM]	-9	11	-3
> Cc1ccccc1OCC(O)CN1CCC(C)CC1 (stereo not drawn)
→ 9%	-20	-14%[15.4 µM]	-20	-2.1	-16
> Cc1ccccc1NC(=O)C(Cc1ccccc1)n1cccc1 (stereo not drawn)
→ 3%	-6	11%[15.4 µM]	-4	0.2	-3
> CCOC(=O)N1CCN(Cc2nc3c(c(=O)[nH]c(=O)n3C)n2Cc2cc(C)ccc2C)CC1
→ -6%	0	-17%	0	0.3	2
> C[C@@H]1CCC[C@]2(O[C@@H](CCO)C[C@H](O)[C@H]2O)O1
→ 6%	-50	·	8	1.0	0
> COc1ccc(CNC(=O)Cn2ccc(NC(=O)OCc3ccccc3)nc2=O)cc1
→ -1%	-4	·	1	-4.5	7
> Cc1ccccc1C(=O)N1CCN(c2ccc([N+](=O)[O-])c(NCc3cccnc3)c2)CC1
→ -35%	-5	-46%[inhibitor]	-5	-2.2	-9
> COc1ccc2c(c1)C=CC1(O2)N(CCO)c2ccccc2C1(C)C (stereo not drawn)
→ -13%	-16	?	0	-7.3	9
> O=C(OCCN1C(=O)c2cccc3c(N4CCOCC4)ccc(c23)C1=O)c1ccccc1Cl
→ ?	10	?	67	6.8	61
> S=C(NC1CCCC1)N1CCN(C/C=C/c2ccccc2)CC1
→ -4%	-12	-1%	0	3.3	-20
> C=CCN(CC=C)c1ncnc2[nH]ncc12
→ -3%	-3	8%	-5	-0.9	2
> CSCCC(NC(=O)c1ccc(Cl)cc1Cl)C(=O)NNC(=O)c1csc(N2CCOCC2)n1 (stereo not drawn)
→ -1%	-16	-9%	-1	-5.1	-10
> N#Cc1cc([N+](=O)[O-])ccc1NC(=O)CSc1n[nH]c(=O)[nH]c1=O
→ 5%	5	-3%	-6	3.0	-7
> O=C(C1CCC(Cn2c(=S)[nH]c3ccccc3c2=O)CC1)N1CCOCC1 (stereo not drawn)
→ -7%	0	4%	-2	-1.6	-5
> CCCCNC(=O)C1(C)CCCCN1C(=O)c1c(C)noc1C (stereo not drawn)
→ ·	-2	·	3	-2.1	10
> O=c1cc(-c2ccc(O)cc2)oc2ccc(O)cc12
→ 11%	11	5%	?	-0.5	?
> COc1ccc(C2C(C(=O)NCc3cccnc3)c3cc(OC)c(OC)cc3C(=O)N2C)cc1 (stereo not drawn)
→ 16%	-15	-21%	5	-2.0	2
> Oc1ccc(C[C@H]2CNC(=S)N2CC2CCCN2C[C@H](Cc2ccc(O)cc2)N2C[C@H](Cc3ccccc3)N(CC3CCCCC3)C2=S)cc1 (stereo partly drawn)
→ -13%	-4	·	-6	3.1	-15
> CCc1nn(CCCC(=O)NC(C)c2ccccc2)c(=O)c2cc3occc3n12 (stereo not drawn)
→ 4%	-15	4%	0	-5.2	-2
> CC(=O)Nc1ccc(Oc2ccc([N+](=O)[O-])cc2Cl)cc1
→ -9%	-4	-6%[15.4 µM]	1	2.2	7
> Cc1ccc(Cn2c(CN3CC(C)OC(C)C3)nc3c2c(=O)[nH]c(=O)n3C)cc1 (stereo not drawn)
→ -7%	8	1%	4	-0.8	6
> O=[N+]([O-])c1cc(Br)cc(/C=N/n2cnnc2)c1O
→ ·	-38	0%[15.4 µM]	-5	-8.9	19
> O=C(Nc1ccncc1)c1c(F)cccc1F
→ 6%	0	2%	7	0.1	11
> CCC1(C(=O)OC)NC(c2ccco2)C2C(=O)N(c3ccc(C)cc3)C(=O)C21 (stereo not drawn)
→ 5%	-9	24%	0	-4.0	5
> c1ccc(C2CCCN(Cc3nc(CC4CC4)no3)CC2)cc1 (stereo not drawn)
→ 6%	-7	6%[15.4 µM]	-2	0.9	10
> O=C(CSc1nnc(-c2ccccc2)n1-c1ccc(Cl)cc1)NC1CCS(=O)(=O)C1 (stereo not drawn)
→ 1%	-7	-48%[inhibitor]	3	-3.7	5
> CCOc1ccc(C(=O)NCc2ccccc2OC)cc1
→ 3%	-16	-4%[15.4 µM]	-7	-1.6	14
> COc1cc(OC)cc(C(=O)N2c3ccc(F)cc3CCC2C)c1 (stereo not drawn)
→ 15%	-22	0%	24	-5.2	0
> CCOC(=O)C1CCN(C(=O)COc2ccc([N+](=O)[O-])cc2)CC1
→ 4%	-1	-25%	2	10	11
> CCc1nnc(NC(=O)CSc2nnc(CNc3ccc(F)cc3)n2C2CCCCC2)s1
→ -13%	-11	-65%[inhibitor]	4	-2.7	0
> COc1cc2c(cc1NC(=O)C(C)Sc1cccc[n+]1[O-])oc1ccccc12 (stereo not drawn)
→ -28%	-2	21%	-3	-0.2	-6
> O=C(NCc1ccco1)C(=O)c1cn(CC(=O)N2CCCC2)c2ccccc12
→ 7%	-3	-9%[15.4 µM]	7	-3.8	-7
> OCCN1CCN(c2ncnc3c2ncn3[C@H]2CN(Cc3cccc(C(F)(F)F)c3)C[C@@H](CO)O2)CC1
→ ·	-13	·	3	-3.2	7
> O=S(=O)(Nc1ccccc1N1CCCC1)c1ccccc1C(F)(F)F
→ ·	-7	?	-2	-0.8	-1
> COC(=O)C/C(N)=C(\C#N)C(=O)OC
→ 1%	3	?	-1	-6.5	·
> CCC(C)n1c(OC)nc2c1c(=O)n(C)c(=O)n2C (stereo not drawn)
→ 9%	-7	11%[15.4 µM]	-1	0.9	2
> CCCn1ncc(CN2CCN(Cc3ccsc3)C(CCO)C2)c1C (stereo not drawn)
→ 13%	-4	30%	2	-2.0	-8
> Nc1cc(=O)[nH]c(SCC(=O)Nc2ccc([N+](=O)[O-])cc2)n1
→ 15%	-22	-30%[inhibitor]	1	-7.6	0
> Cc1nc(N2CCN(S(=O)(=O)c3ccc(F)cc3)CC2)c2c(-c3cccs3)csc2n1
→ ?	7	-24%	25	2.7	-6
> CC(=O)c1c(C)[nH]c(C(=O)CSc2nnc(-c3ccccc3)n2Cc2ccc3c(c2)OCO3)c1C
→ -12%	-47	16%	10	0.0	-1
> COc1ccc(C(=O)/C=C/Nc2ccccn2)cc1
→ -11%	-10	-7%	4	-2.8	-4
> N#C/C(=C\c1ccc(O)c(Br)c1)C(=O)NCc1ccccc1
→ -12%	-5	0%	-3	-1.6	8
> O=C(CCn1nc(-c2ccc(Cl)cc2)ccc1=O)NCCCN1CCCCCC1
→ -2%	-3	-6%	-2	-0.7	-1
> Clc1ccc(Cn2ncc3c(N4CCCCC4)ncnc32)cc1
→ 1%	8	5%	2	-3.0	7
> CC(=O)c1cccc(NC2c3ccccc3C(=O)N2Cc2ccco2)c1 (stereo not drawn)
→ -8%	1	28%	0	1.4	-3
> Cc1ccc(NC(=O)c2ccc(S(=O)(=O)NCC3CCCO3)cc2)cc1 (stereo not drawn)
→ 4%	-9	-7%	2	-1.5	6
> O=C(CCN1C(=O)S/C(=C\c2cccs2)C1=O)NC1=NCCS1
→ -6%	0	2%	-4	-0.2	3
> O=S(=O)(Nc1nccs1)c1ccc(Cl)cc1
→ -10%	1	-11%	1	-0.3	1
> Cc1ccc(NC(=O)CSc2nn(-c3ccc(Cl)cc3)c(=S)s2)cc1S(=O)(=O)N(C)C
→ -3%	-8	30%	-15	3.8	2
> CC(C)(C)c1cc(C2COC(=O)COCCOCC(=O)OCCOCCO2)cc(C(C)(C)C)c1O (stereo not drawn)
→ -22%	2	22%	7	2.1	-6
> Cc1cc(SCC(=O)Nc2cccnc2Cl)nc2ccccc12
→ -2%	-18	11%[15.4 µM]	1	-6.1	5
> Cc1cccc(NS(=O)(=O)c2ccc3nc(-c4ccccc4)[nH]c3c2)c1C
→ 15%	5	-29%	4	8.3	2
> Cc1ccc(S(=O)(=O)N2CCN(CC(O)COc3ccccc3)CC2)cc1 (stereo not drawn)
→ -4%	-10	11%[15.4 µM]	-4	0.5	8
> Cc1c(/C=N/NC(=O)CNc2ccccc2)c2ccccn2c1C(=O)c1ccccc1
→ -8%	-16	-5%	?	-4.1	0
> CC1(C(=O)NS(=O)(=O)Cc2ccccc2C(F)(F)F)CCN1C(=O)Cc1ccsc1 (stereo not drawn)
→ ·	-3	·	0	-4.2	0
> COc1ccc2[nH]c3ccc(OC)cc3c2c1
→ ?	-4	-5%	-18	-2.6	-5
> CCOc1cc(C2C(C(=O)N3CCCCC3)=C(C)NC3=C2C(=O)CC(C)(C)C3)ccc1O (stereo not drawn)
→ 5%	-1	-1%	9	-1.2	-1
> N#Cc1ccc(CSc2nnc3ccccn23)cc1
→ -4%	-1	?	-1	-1.5	8
> COc1ccc(F)cc1C(=O)C1CCCN(C(=O)c2ocnc2C)C1 (stereo not drawn)
→ 3%	-5	?	4	0.0	3

Entries listed so far with two or more sulfur atoms, in the order listed:
Values in the order – gsp antagonist	D2 PAM	gsp agonist	Six1-Eya2 inh	D2 agonist	CtBP-E1A inh
> CSCCC(NC(=O)c1ccc(Cl)cc1Cl)C(=O)NNC(=O)c1csc(N2CCOCC2)n1 (stereo not drawn)
→ -1%	-16	-9%	-1	-5.1	-10
> Oc1ccc(C[C@H]2CNC(=S)N2CC2CCCN2C[C@H](Cc2ccc(O)cc2)N2C[C@H](Cc3ccccc3)N(CC3CCCCC3)C2=S)cc1 (stereo partly drawn)
→ -13%	-4	·	-6	3.1	-15
> O=C(CSc1nnc(-c2ccccc2)n1-c1ccc(Cl)cc1)NC1CCS(=O)(=O)C1 (stereo not drawn)
→ 1%	-7	-48%[inhibitor]	3	-3.7	5
> CCc1nnc(NC(=O)CSc2nnc(CNc3ccc(F)cc3)n2C2CCCCC2)s1
→ -13%	-11	-65%[inhibitor]	4	-2.7	0
> Cc1nc(N2CCN(S(=O)(=O)c3ccc(F)cc3)CC2)c2c(-c3cccs3)csc2n1
→ ?	7	-24%	25	2.7	-6
> O=C(CCN1C(=O)S/C(=C\c2cccs2)C1=O)NC1=NCCS1
→ -6%	0	2%	-4	-0.2	3
> O=S(=O)(Nc1nccs1)c1ccc(Cl)cc1
→ -10%	1	-11%	1	-0.3	1
> Cc1ccc(NC(=O)CSc2nn(-c3ccc(Cl)cc3)c(=S)s2)cc1S(=O)(=O)N(C)C
→ -3%	-8	30%	-15	3.8	2
> CC1(C(=O)NS(=O)(=O)Cc2ccccc2C(F)(F)F)CCN1C(=O)Cc1ccsc1 (stereo not drawn)
→ ·	-3	·	0	-4.2	0
